# Assay outcomes deposited in PubChem by several laboratories.
# HIV Env fusion – inhibitors of HIV-1 Env-driven cell-cell fusion, primary screen, HeLa-JRFL effector, CEM21 target cells, luciferase; inhibition, % at 12.3 µM; 1.1% of 360,000 active; AID 651610, 2012;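 active means mean replicate inhibition score of at least 50 and every replicate individually at or above 50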;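 further: 0% = plate neutral controls and 100% = maraviroc near 300 nM; one replicate is shown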
# MT1-MMP act inh – blockers of MT1-MMP proenzyme processing, primary screen, HT1080 RFP-PRO-GFP cells, GFP/RFP fluorescence; Matrix metalloproteinase-14 (Homo sapiens), P50281; GFP/RFP ratio fluorescence, overnight; percent of plate control window, DMSO zero; GFP/RFP ratio change, % at 20 µM; 0.061% of 360,000 active;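 active means GFP/RFP ratio change of at least 30% with cell ATP level not reduced by more than half and red fluorescence within 50% of control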; further: strong numbers were not always called active
#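 Assay system: HT1080 cells carrying an RFP-PRO-GFP reporter | Dosing: Single dose of 20 µM compound, 1% DMSO final | Incubation: Cells overnight before dosing, compound overnight, 37 °C, 5% CO2 | Evaluation: GFP/RFP fluorescence ratio | Control set: DMSO and RFP-L50D-GFP cell wells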
# MT1-MMP act inh RFP – recorded beside MT1-MMP act inh, whose call it bears; RFP signal change, %; measured here: RFP expression control read;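 0 = vehicle wells; hits needed this value within 50% of zero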
# * hit, by the source's call.
# Every second line gives: HIV Env fusion, MT1-MMP act inh, MT1-MMP act inh RFP
1: CC(=O)OC1C(O)C(C)OC(OC2C(OC(=O)C3CCC4C(C3)OC3(CC(OC(=O)/C=C/c5ccccc5)C(C)CO3)C43CO3)OC(C)C(O)C2OC(C)=O)C1O (stereo not drawn)
 : 72.2*, -41.8, -36.9
2: COc1cc(C2(C#N)CCN(C)CC2)cc(OC)c1OC
 : -13.6, 0.4, 0.1
3: CCOC(=O)[C@]12Cc3c(cc(OC)c(OC)c3OC)[C@H]1N(CCC(=O)OC)C(=O)c1ccccc12
 : 1.1, -4.5, -10.0
4: CCCCCC1(C(C)C)C(=O)NC(=S)NC1=O
 : -4.2, -15.7, -5.0
5: COOCC1(C(=O)OC)C[C@H](c2ccc(OC)cc2)N(Cc2ccccc2OC)[C@@H]1c1ccccc1C (stereo partly drawn)
 : 89.0*, 1.1, -8.5
6: CCCCC1C(=O)NC(=S)N(C)C1=O (stereo not drawn)
 : -10.7, 1.2, -2.8
7: COc1ccc(-c2nc3ccc(Br)cn3c2CC(=O)N2CCCC2)cc1OC
 : 0.1, 0.3, 2.1
8: C[C@H]1COc2cccc(N3CCN(C)CC3)c2S(=O)(=O)N1
 : -31.4, 3.2, 5.2
9: Cc1ccc(C(O)(C(=O)OC(C)C)C(O)c2ccc(F)cc2)cc1 (stereo not drawn)
 : 11.8, -3.1, -1.6
10: O=c1[nH]c2ccccc2n1C1CCN(Cc2ccc(-c3nc4ccccc4nc3-c3ccccc3)cc2)CC1
 : -41.3, 2.9, -11.3
11: C=CCC1(CCCCC)C(=O)NC(=S)NC1=O
 : 13.1, 0.3, 1.4
12: COC(=O)C1=C(C(=O)OC)C2OC1c1cc3ccccc3cc12
 : 23.2, 2.2, -2.1
13: COC[C@H]1OC(=O)c2coc3c2[C@@]1(C)C1=C(C3=O)[C@@H]2CCC(=O)[C@@]2(C)C[C@H]1OC(C)=O
 : 7.3, -14.5, 11.6
14: O=C(c1ccccc1)C(Cc1ccccc1)N1CCOCC1 (stereo not drawn)
 : 2.4, -1.3, -2.5
15: CCOC(=O)[C@]12Cc3cc(OC)ccc3[C@H]1N(C)C(=O)c1ccccc12
 : 5.6, 3.1, 4.5
16: CC(=O)C1C(N2CC2)CC2C3CCC4=CC(=O)CCC4(C)C3CCC21C (stereo not drawn)
 : -13.3, -0.1, -7.9
17: CCOC(=O)[C@]12Cc3cc4ccccc4cc3[C@H]1N(Cc1ccccc1)C(=O)c1cc(OC)ccc12
 : 21.9, -20.6, -31.4
18: CC12CCC3C(CCC4(O)CC(O)CCC34C=NO)C1(O)CCC2C1=COC(=O)C1 (stereo not drawn)
 : 105.1*, -44.3, -28.3
19: CC(=O)O[C@H]1C[C@@H]2OC3C=C(C)CCC3(C)[C@@]1(C)[C@@]21CO1 (stereo partly drawn)
 : 71.6*, -49.0, -35.3
20: O=C(NCCN1CCC2(CC1)C(=O)NCN2c1cccc(F)c1)c1ccc2ccccc2c1
 : 25.9, -6.6, -5.4

# Shown in transposed form: entries from further up.
9	Cc1ccc(C(O)(C(=O)OC(C)C)C(O)c2ccc(F)cc2)cc1 (stereo not drawn)
10	O=c1[nH]c2ccccc2n1C1CCN(Cc2ccc(-c3nc4ccccc4nc3-c3ccccc3)cc2)CC1

compound no.	9	10
HIV Env fusion	11.8	-41.3
MT1-MMP act inh	-3.1	2.9
MT1-MMP act inh RFP	-1.6	-11.3

# (list continues)
# Every second line gives: HIV Env fusion, MT1-MMP act inh, MT1-MMP act inh RFP
21: C=CCCC1(CC(C)C)C(=O)NC(=S)NC1=O
 : 13.9, 3.0, 4.2
22: CCOC(=O)[C@]12Cc3ccccc3[C@H]1N(C(C)C)C(=O)c1ccccc12
 : -13.5, -2.4, -2.8
23: CC1([N+](=O)[O-])COP(=O)(NCc2cccnc2)OC1 (stereo not drawn)
 : -15.6, -4.3, 0.8
24: CCCC1CCCCC12C(=O)NC(=O)NC2=O (stereo not drawn)
 : 2.3, 2.7, 3.8
25: COc1ccc(CC2C(=O)NC(C)C(=O)N(C)C3C(=O)N(C)C(Cc4ccc(O)c(c4)Oc4ccc(cc4)C3O)C(=O)NC(C)C(=O)NC(C)C(=O)N2C)cc1 (stereo not drawn)
 : 70.2*, -39.2, -35.4
26: COC1/C=C/C=C(\C)Cc2cc(O)c(Cl)c(c2)N(C)C(=O)CC(OC(=O)C(C)C)C2(C)OC2C(C)C2CC1(O)NC(=O)O2 (stereo not drawn)
 : 56.3*, 14.8, 2.9
27: CC12CC(=O)C3C(CCC4CC(=O)C=CC43C)C1CCC2=O (stereo not drawn)
 : -103.2, 0.6, -1.2
28: O=C(Nc1cccc(Cl)c1)OCC#CCN1CCCC1
 : -7.7, -1.4, 0.2
29: COC12c3ccccc3-c3ccccc3C1C(C(=O)O)C2C(=O)O (stereo not drawn)
 : 6.4, 1.3, 3.2
30: C=CCC1(CC)C(=O)NC(=S)NC1=O
 : -2.5, 1.3, 0.6
31: COc1ccc(CC(=O)C2C(=O)N(C)c3ccccc32)cc1OC (stereo not drawn)
 : 10.5, 0.6, 5.7

# Of the compounds above, 3 have four or more nitrogen atoms:
# Every second line gives: HIV Env fusion, MT1-MMP act inh, MT1-MMP act inh RFP
10: O=c1[nH]c2ccccc2n1C1CCN(Cc2ccc(-c3nc4ccccc4nc3-c3ccccc3)cc2)CC1
 : -41.3, 2.9, -11.3
20: O=C(NCCN1CCC2(CC1)C(=O)NCN2c1cccc(F)c1)c1ccc2ccccc2c1
 : 25.9, -6.6, -5.4
25: COc1ccc(CC2C(=O)NC(C)C(=O)N(C)C3C(=O)N(C)C(Cc4ccc(O)c(c4)Oc4ccc(cc4)C3O)C(=O)NC(C)C(=O)NC(C)C(=O)N2C)cc1 (stereo not drawn)
 : 70.2*, -39.2, -35.4

# Whole records from above:
# `COc1ccc(CC2C(=O)NC(C)C(=O)N(C)C3C(=O)N(C)C(Cc4ccc(O)c(c4)Oc4ccc(cc4)C3O)C(=O)NC(C)C(=O)NC(C)C(=O)N2C)cc1` (stereo not drawn) is entered as HIV Env fusion: 70.2*; MT1-MMP act inh: -39.2; MT1-MMP act inh RFP: -35.4
# `CCCC1CCCCC12C(=O)NC(=O)NC2=O` (stereo not drawn) is entered as HIV Env fusion: 2.3; MT1-MMP act inh: 2.7; MT1-MMP act inh RFP: 3.8
# `O=C(Nc1cccc(Cl)c1)OCC#CCN1CCCC1` is entered as HIV Env fusion: -7.7; MT1-MMP act inh: -1.4; MT1-MMP act inh RFP: 0.2

# An excerpt; the hit share may differ from the screen's.
